ClpP mod: qHTS Assay for Activators of ClpP | ATP-dependent Clp protease proteolytic subunit (Bacillus subtilis (strain 168)), P80244 | AID 651965, 2013 | Potency, µM (titrated, usually from 57.5 µM), without a hit: top-dose activity change, negative = active | purified B. subtilis ClpP, FRET peptide cleavage, 20 min | actives 1.9% (n = 340,000); active = well fitted falling curve with a large enough effect; inconclusive = small, poorly fitted or top-dose-only effect; inactive = no such curve, though single readings can be large or run the other way; further: potency means the concentration at half of the fitted maximal effect; the source files actives as falling curves though it sought activators and does not explain the sign; nearly all actives have a fitted effect of over 65% in size; many hits overshoot -100%
Target sequence (P80244 whole entry, looked up): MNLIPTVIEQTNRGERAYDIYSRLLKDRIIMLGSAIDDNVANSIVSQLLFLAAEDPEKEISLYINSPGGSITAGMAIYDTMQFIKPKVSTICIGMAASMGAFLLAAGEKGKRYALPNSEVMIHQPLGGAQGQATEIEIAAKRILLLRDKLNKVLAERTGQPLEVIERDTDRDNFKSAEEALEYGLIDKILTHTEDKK
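ClpP 10 microg/mL final, pH 8 Tris/KCl buffer with BSA, glycerol, Tween-20; compound pinned in; FRET-FV substrate; RT 20 min; Ex320/Em430; ΔFRET vs ADEP 5.8 microM, DMSO, no enzyme.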
TRPML1 ag: human mucolipin-1 channel agonism | TRPML1-expressing cells, Ca2+ dye fluorescence, FDSS; host cell line not named in the record; reference of the full effect not given here | activation, % (test concentration not listed) | actives 0.12% (n = 410,000); in the data active = activation above about 50%; inconclusive = about 30% to 50%; inactive = below about 30%; further: 0% is about no effect; the text of the record puts the active cut at 80%
Target sequence (Q9GZU1 whole entry, looked up): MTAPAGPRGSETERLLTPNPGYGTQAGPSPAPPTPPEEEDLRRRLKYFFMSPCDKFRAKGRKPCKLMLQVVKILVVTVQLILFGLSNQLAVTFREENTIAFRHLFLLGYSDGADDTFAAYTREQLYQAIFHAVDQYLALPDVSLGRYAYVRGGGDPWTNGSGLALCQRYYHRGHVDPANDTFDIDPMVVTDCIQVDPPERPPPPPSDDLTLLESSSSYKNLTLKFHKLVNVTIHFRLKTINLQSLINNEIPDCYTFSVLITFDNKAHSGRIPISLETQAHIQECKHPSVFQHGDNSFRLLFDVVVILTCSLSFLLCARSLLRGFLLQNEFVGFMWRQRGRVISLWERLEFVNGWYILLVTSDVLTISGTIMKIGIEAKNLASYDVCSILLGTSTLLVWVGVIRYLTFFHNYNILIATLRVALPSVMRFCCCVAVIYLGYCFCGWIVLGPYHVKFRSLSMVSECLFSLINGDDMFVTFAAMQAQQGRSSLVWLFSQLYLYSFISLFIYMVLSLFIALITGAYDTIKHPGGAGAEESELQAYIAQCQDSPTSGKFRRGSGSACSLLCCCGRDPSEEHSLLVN
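Kinetic FDSS Ca2+ read in Tet-induced TRPML1-DL cells (ABD Ca8 dye plus quencher, 45-90 min RT loading): baseline, then compound, then 110 s agonist window; EC80 agonist 54-4 at 4uM final added afterwards for a 110 s antagonist window.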
gsp antagonist: gsp mutant antagonism. gsp-mutant cells, cAMP HTRF, 30 min; control for the full effect not named in the record. Potency, µM (highest dose often 76.9 µM), for inactives: top-dose activity change, negative = inhibition, most hits filed as inhibitors. actives 0.4% (n = 340,000); active = falling curve of any shape with a large fitted effect; inconclusive = falling curve, mostly with a smaller effect; inactive = flat or rising curve; cell line not stated here;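 further: intracellular cAMP measured with PDE inhibitor Ro 20-1724 present during compound exposure; potency means the concentration at half of the fitted maximal effect; on the % scale 0 is the no-effect control and ±100 the full control effect; nearly all actives have a fitted effect of over 65% in size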
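Measurement of cellular cAMP by homogeneous time-resolved fluorescence following a 30 min compound exposure at 37C. The PDE inhibitor […] was present throughout; the assay buffer was DPBS with 0.05% BSA and 0.005% Tween 20.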
gsp agonist: agonists of gsp mutant (McCune-Albright syndrome). gsp mutant cells, cAMP HTRF, 30 min; control for the full effect not named in the record. Potency, µM (doses to about 76.9 µM), inactives show at the top dose activation (cAMP increase), actives largely listed as activators. actives 0.13% (n = 340,000). AID 624287; active = well fitted activation curve with a large enough effect; inconclusive = small, poorly fitted or top-dose-only effect, or another doubt; inactive = no such curve, though single readings can be large or run the other way; cell line not stated here;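 further: phosphodiesterase inhibitor Ro 20-1724 added with compounds to block cAMP breakdown; potency means the concentration at half of the fitted maximal effect; nearly all actives have a fitted effect of over 60% in size; about a fifth of the inactives were tested at one dose only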
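Cells in DMEM/10% FBS with G418 were pretreated with compounds in DMSO plus […] (300 uM stock) for 30 min at 37C. cAMP was measured by HTRF (cAMP-d2 plus anti-cAMP antibody-K) after 30 min at room temperature.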
TRPML1 blocker: inhibitors of human TRPML1 channel; TRPML1-inducible cells, Ca2+ dye fluorescence, FDSS; stronger effect = lower value; inhibition of EC80 agonist-evoked calcium signal; AID 624415; actives 0.02% (n = 390,000); activity change, negative = inhibition, % (test concentration not listed); in the data active means activity change below about -50%; inconclusive means about -30% to -50%; inactive means above about -30%;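 further: stimulus is agonist 54-4 at its EC80 concentration; on the % scale 0 is the no-effect control and ±100 the full control effect; compound concentration not given in the record; the text of the record puts the active cut at -80%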
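Tet-induced TRPML1-DL cells loaded with Ca8 no-wash calcium dye were read kinetically on FDSS. Compound addition was followed by EC80 agonist 54-4 (4 uM final); inhibition was read over 110 s.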
Menin-MLL FL inh: inhibitors of human menin-MLL interaction, wild-type MLL peptide; Fluorescence polarization, fluorescein-MLL peptide displacement from menin; FP activity change, % at 61.4 µM; 290,000 tested, under 10 active; AID 1766; inconclusive = falling polarisation curve, or a change in total fluorescence; inactive = total fluorescence flat and polarisation flat or rising; no compound was filed as active; the % refers to the polarisation; negative = inhibition;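 further: % of control where 0% means no effect; inhibitors lower the polarisation; unlabelled MLL peptide was the positive control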
The depositor's hits bear a star; ? = inconclusive; . = no result given; & = joins results of further samples; [ ] = dose if it differs, or a comment.

cpd	molecule	ClpP mod	TRPML1 ag	gsp antagonist
1	C=C1C(=O)C=C2CN(C(=O)c3ccccc3)[C@@](Cc3ccc(F)cc3)(C(=O)OC)[C@@H]12	0.2%	2.3	-6.4%
2	CC(=O)Nc1ccc(S(=O)(=O)N2CCN(Cc3ccccc3[N+](=O)[O-])CC2)cc1	.	-0.6	-3.4%
3	CN(C)CCNC(=O)C(=O)NCC(c1cccnc1)N1CCN(c2ccc(F)cc2)CC1 (centres undefined)	-0.6%	0.7	.
4	CC1(C)CC(=O)c2cc(-c3nc(-c4ccc(Cl)cc4)cs3)c(=O)n(-c3ccc(Cl)cc3)c2C1	-21.5%	0.6	.
5	C#Cc1ccc([C@@H]2C=C(C(=O)NCc3ccccc3)O[C@H](OCC)[C@H]2CCCO)cc1	-4.2%	1.6	-23.6%
6	COc1ccc(CNC(=O)c2sccc2C)cc1	.	-0.6	9.4%
7	COc1ccc(C(CC(=O)Nc2cc(C)ccn2)N2Cc3ccccc3C2=O)cc1 (centres undefined)	0.5%	0.9	-20.1%
8	Cc1nn(C)c(C)c1NC(=O)C12CC3CC(CC(C3)C1)C2	1.6%	-0.4	18.8%
9	COc1ccc(C)cc1NC(=O)c1cccc(-c2ccc(OC(C)=O)cc2)c1	-2.0%	1.5	25.1µM*
10	CCNc1nc(NC(C)(C)C)nc(SCC(N)=O)n1	.	-0.9	1.0%
11	O=C(Nc1cccc2ccccc12)C1CCN(C(=O)Cc2ccccc2)CC1	-5.7%	-0.4	-13.0%
12	CCOC(=O)N1CCC(NC(=O)C2CCN(S(=O)(=O)c3c(C)noc3C)CC2)CC1	-0.8%	-0.7	2.4%
13	Cc1ccc(C(=O)c2cn(CC(=O)NCc3ccccc3)c3nc(C)ccc3c2=O)cc1	-1.9%	-0.5	.
14	CC(=O)Nc1nonc1NC(C)=O	-4.0%	-0.6	9.0%
15	COc1ccc(CCNC(=O)C/C(C)=N/NC(=O)C2CCCCC2)cc1OC	.	-0.1	11.0%

cpd	gsp agonist	TRPML1 blocker	Menin-MLL FL inh
1	.	-13.0	3.4&9.3
2	-9.6%[15.4 µM]	14.1	-3.8
3	.	4.9	.
4	.	35.3	.
5	-1.9%	16.2	0.0
6	6.6%	-5.2	-4.3
7	-0.3%	26.5	7.5
8	4.3%[15.4 µM]	-22.7	-4.4
9	6.3%[15.4 µM]	13.1	1.9
10	-6.2%	41.0	0.3
11	0.0%	-0.4	0.6
12	-8.2%	-15.9	-0.5
13	.	29.5	.
14	15.1%	-1.1	-0.9
15	1.5%[15.4 µM]	3.8	0.6

Following part:
cpd	molecule	ClpP mod	TRPML1 ag	gsp antagonist
16	C[C@H]1CN([C@@H](C)CO)C(=O)CCCn2cc(nn2)CO[C@@H]1CN(C)S(C)(=O)=O	-5.0%	-0.5	.
17	CCN(C(=O)CSC1=Nc2ccccc2C2CC=NN12)C1CCS(=O)(=O)C1 (centres undefined)	-0.3%	0.2	-3.7%
18	O=C(CSc1nnnn1-c1cccc(C(=O)O)c1)NC(c1ccccc1)c1ccccc1	.	-0.7	-14.9%
19	C=CCOc1cccc(C2C(C(=O)c3ccco3)=C(O)C(=O)N2Cc2ccco2)c1 (centres undefined)	.	-0.5	0.7%
20	CCNc1cc(N2CCOCC2)nc(SC)n1	-1.0%	-0.7	-0.9%
21	CCOc1ccc(S(=O)(=O)N2CCCC(C(=O)NCc3ccccn3)C2)cc1Cl (centres undefined)	-1.1%	1.0	-16.3%
22	O=S(=O)(c1ccc(F)cc1)c1nc(-c2ccc(F)cc2)oc1NCCN1CCOCC1	-1.5%	-0.3	-10.8%
23	CC1CCN(C(=O)c2nc[nH]c2C(=O)N2CCc3ccccc3C2)CC1	-1.2%	-0.7	12.3%
24	COc1coc(C(O)C[N+](=O)[O-])cc1=O (centres undefined)	.	-0.9	6.5%
25	O=C(/C=C/c1ccc(F)cc1)NC(=S)N1CCN(c2ccccn2)CC1	.	0.4	-13.6%
26	Clc1ccc2c(NCc3ccccn3)ccnc2c1	3.7%	2.8	9.2%
27	Cc1ccc(OCC(=O)Nc2ccc3c(c2)nc2n3CCOC2)cc1	3.0%	-0.3	-2.2%
28	Cn1c(N)c(C(=O)CSc2nnc(C3CC3)n2Cc2ccccc2)c(=O)[nH]c1=O	-2.8%	-0.8	15.3%
29	Cc1nnc(SCC(=O)NNC(=O)c2ccccc2)n1N	0.3%	-0.1	-6.8%
30	O=C(c1ccc(COc2ccc(F)cc2)o1)n1cccn1	-0.4%	1.0	4.3%

cpd	gsp agonist	TRPML1 blocker	Menin-MLL FL inh
16	-12.2%	30.9	.
17	?	33.2	-5.2
18	-2.5%[15.4 µM]	-13.8	0.4
19	-8.7%[15.4 µM]	-7.3	-1.3
20	3.0%	-1.9	-2.8
21	-25.7%	29.9	.
22	-5.3%	-7.0	-4.1
23	.	0.0	.
24	1.4%	-2.2	5.8
25	-6.6%	-15.0	-0.4
26	-39.4%[inhibitor]	-4.8	-6.4
27	2.0%	8.4	26.6
28	-35.4%[inhibitor]	-7.0	.
29	-34.9%[inhibitor]	-5.8	.
30	-2.1%	-6.9	2.0

7 entries drawn at random from those above, as already listed:
cpd	molecule	ClpP mod	TRPML1 ag	gsp antagonist
20	CCNc1cc(N2CCOCC2)nc(SC)n1	-1.0%	-0.7	-0.9%
22	O=S(=O)(c1ccc(F)cc1)c1nc(-c2ccc(F)cc2)oc1NCCN1CCOCC1	-1.5%	-0.3	-10.8%
30	O=C(c1ccc(COc2ccc(F)cc2)o1)n1cccn1	-0.4%	1.0	4.3%
16	C[C@H]1CN([C@@H](C)CO)C(=O)CCCn2cc(nn2)CO[C@@H]1CN(C)S(C)(=O)=O	-5.0%	-0.5	.
24	COc1coc(C(O)C[N+](=O)[O-])cc1=O (centres undefined)	.	-0.9	6.5%
26	Clc1ccc2c(NCc3ccccn3)ccnc2c1	3.7%	2.8	9.2%
19	C=CCOc1cccc(C2C(C(=O)c3ccco3)=C(O)C(=O)N2Cc2ccco2)c1 (centres undefined)	.	-0.5	0.7%

cpd	gsp agonist	TRPML1 blocker	Menin-MLL FL inh
20	3.0%	-1.9	-2.8
22	-5.3%	-7.0	-4.1
30	-2.1%	-6.9	2.0
16	-12.2%	30.9	.
24	1.4%	-2.2	5.8
26	-39.4%[inhibitor]	-4.8	-6.4
19	-8.7%[15.4 µM]	-7.3	-1.3

Continuation:
cpd	molecule	ClpP mod	TRPML1 ag	gsp antagonist
31	CC(CCc1ccccc1)N1CCN(Cc2ccccc2)CC1 (centres undefined)	-0.4%	-0.4	10.8%
32	O=C(NCCO)c1cccc(S(=O)(=O)N2CCCCC2)c1	-1.7%	-0.4	1.7%
33	NC(=O)C1CCN(CC(=O)Nc2ccccc2Sc2ccccc2)CC1	-1.4%	0.2	11.5%
34	CCC(=O)Nc1cccc(NC(=O)CSc2nnnn2Cc2ccccc2)c1	-1.9%	-0.8	-10.5%
35	COc1ccc(CNC(=O)CCN2C(=S)NC(C)(C)CC2C)cc1 (centres undefined)	-9.9%	0.2	9.7%
36	COc1ccc(OC)c(NC(=O)/C=C/c2ccccc2[N+](=O)[O-])c1	-0.5%	-0.6	?
37	COc1ccc(OC)c(S(=O)(=O)Nc2ccc(O)c3ccccc23)c1	-1.6%	-0.2	6.2%
38	CCCn1nc(NC(=O)c2cccs2)c2cc3cc(C)ccc3nc21	.	2.0	?
39	COc1ccc(NC(=O)N(C)C[C@H]2OCCCC[C@@H](C)Oc3ccc(N(C)C)cc3C(=O)N([C@H](C)CO)C[C@@H]2C)cc1	-2.2%	-0.3	.
40	CCN(CC(=O)Nc1ccc(NC(C)=O)cc1)C(=O)c1ccc(N2C(=O)c3ccccc3C2=O)cc1	-1.3%	-0.6	11.1%
41	Cc1ccccc1Cn1nc(C)c(NC(=O)C(F)(F)F)c1C	1.1%	-0.5	8.4%
42	COc1ccc(-c2cc(C)no2)cc1S(=O)(=O)NC(C)C	-8.5%	-0.2	.
43	CCOC(=O)C1=NNC2(c3ccc(C)cc3)C(=O)N(c3ccc(Cl)cc3)C(=O)C12 (centres undefined)	1.7%	0.1	-8.9%
44	CC(C)(C)NC(=O)CN(CCN1CCOCC1)C(=O)CNS(=O)(=O)c1ccc(Cl)cc1	.	0.2	5.8%
45	O=C(NC1CC1)c1ccc2c(c1)ncn2C1CCCC1	-0.7%	0.7	0.2%

cpd	gsp agonist	TRPML1 blocker	Menin-MLL FL inh
31	4.5%	-0.6	.
32	-6.4%	-6.9	1.8
33	-11.0%	8.5	-0.3
34	-26.4%	-12.4	2.4
35	18.4%[15.4 µM]	17.1	-4.4
36	-47.4%[inhibitor]	-14.2	.
37	?	-5.0	0.4
38	-1.8%[15.4 µM]	-14.5	-3.8
39	4.9%	4.1	.
40	21.5%	-3.2	.
41	4.3%	20.7	0.1
42	.	-4.2	.
43	?	-1.2	1.1
44	?	1.2	1.9
45	3.6%	5.0	0.9

The results go on.
cpd	molecule	ClpP mod	TRPML1 ag	gsp antagonist
46	CCNc1ccc(-c2nc(-c3ccco3)no2)cc1[N+](=O)[O-]	-0.8%	-1.0	.
47	Cn1c(=O)[nH]c(=O)c2[nH]c(NCCCN3CCOCC3)nc21	0.5%	-0.7	0.6%
48	COc1cc(NC(=O)NC(C)c2c(-n3cccc3)sc3c2CCN(C)C3)cc(OC)c1 (centres undefined)	-0.6%	3.3	.
49	COCCCNC(=O)C(=O)N/N=C/c1cc2c(cc1Br)OCO2	0.5%	-0.5	-4.4%
50	CCOc1ccc(CCNC(=O)Cn2ccc3cc(S(=O)(=O)N4CCCCC4)ccc32)cc1	-6.4%	2.2	.
51	Cc1cccc(N2CCN(C(=O)c3cc(COc4ccc(F)c(F)c4)on3)CC2)n1	2.6%	0.9	-1.0%

cpd	gsp agonist	TRPML1 blocker	Menin-MLL FL inh
46	.	1.6	.
47	14.9%	5.0	6.6
48	.	-1.3	.
49	18.8%[15.4 µM]	8.1	6.3
50	.	-15.6	.
51	-2.9%	9.6	.

Assay outcomes (PubChem)
